Assay outcomes from PubChem.
Shh pathway inh: blocks Sonic Hedgehog signaling; inhibition, % (concentration not given with the values); 22,000 compounds, 2.1% hits; Shh-LIGHT2 Gli-luciferase reporter, 30 h;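 active = replicate mean of 65% or more; inconclusive = mean lower but half the replicates past it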;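 also: pathway switched on by Shh-conditioned medium diluted 1 in 25 in low serum; 100 nL library stock added to about 40 µL; 0% = median of neutral wells and 100% = positive control level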
MITF inhib: blocks MITF activity | inhibition, % (concentration not given with the values) | TRPM1 promoter luciferase, luminescence, 24 h | 37,000 compounds, 0.28% hits | AID 2240;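 active = most replicates at 85% or more, or half of them and the mean; inconclusive = half reach 85% but not the mean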;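 also: human melanocyte line stably carrying TRPM1 promoter luciferase reporter; 0% = vehicle wells and 100% = a positive control; the first replicate is given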
PD-1 reverse act: activators reversing PD-1 mediated T-cell inhibition | primary human CD4 T cells, PD-L1 beads, CellTiter-Glo 96 h | activation, % (no concentration beside the values) | 29,000 tested, under 10 active | AID 2316;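 active = replicate mean of 50% or more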;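 also: 0% = median vehicle wells and 100% = positive control; 100 nL library stock added to about 50 µL; numbers are from one replicate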
YB-1 expr inh: YB-1 expression inhibition | U2OS, qRT-PCR YB-1 vs CDIP delta delta Cp, 16 h; stronger effect = higher value; zero = DMSO, each unit about twofold | 30,000 compounds, 0.37% hits | delta delta Cp (YB-1 minus CDIP) (test concentration not listed);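 active = delta delta Cp rounded down to an integer at or above 3, about 3 SD of DMSO wells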;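 also: higher means less YB-1 transcript or more CDIP transcript relative to DMSO; stock transfer was 100 nL into about 100 µL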
* = called active by the depositor; ? = inconclusive; · = no result given. Some of the compounds tested; rates above refer to the full screens.

Below each SMILES: YB-1 expr inh, Shh pathway inh, PD-1 reverse act, MITF inhib
1: C[C@H]1CN([C@@H](C)CO)C(=O)c2cccc(NC(=O)C3CC3)c2O[C@@H]1CN(C)S(=O)(=O)c1ccccc1
  0.028, -3, 1.0, -1
2: COc1ccc(CN(C)C[C@H]2Oc3ccc(NS(C)(=O)=O)cc3CC(=O)N([C@H](C)CO)C[C@H]2C)cc1
  0.023, -6, ·, 3
3: COC1OC(C)C(OCc2ccccc2)C(O)C1O (centres undefined)
  0.036, -11, 0.9, -16
4: Cc1cccc(C(=O)N(CC#N)CC#N)c1
  0.074, -13, 0.2, 1
5: C[C@@H]1CN([C@H](C)CO)C(=O)c2cc(NC(=O)Nc3ccc(F)cc3)ccc2O[C@H]1CN(C)C(=O)Nc1ccc(F)cc1
  -0.075, 3, 0.4, 2
6: CN(CC(=O)Nc1ccccc1Cl)S(=O)(=O)c1ccc(Cl)cc1
  ·, ·, 0.6, -19
7: Cc1ccc(S(=O)(=O)Nc2ccc3c(c2)C(=O)N([C@H](C)CO)C[C@H](C)[C@H](CN(C)C(=O)NC2CCCCC2)OCCCC[C@@H](C)O3)cc1
  0.61, 6, 0.6, 10
8: O=C1c2cccc3cccc(c23)C(=O)N1OS(=O)(=O)c1cccc2cccnc12
  ·, ·, 3.2, -4
9: C[C@H]1CN([C@@H](C)CO)C(=O)Cc2cc(NC(=O)Nc3ccc(F)cc3)ccc2O[C@@H]1CN(C)C(=O)Nc1ccccc1
  -0.087, -19, ·, 8
10: COC(=O)c1c(-c2c(Cl)cccc2Cl)noc1NC(=O)N(C)C
  0.23, 15, -0.6, 8
11: C[C@@H]1CN([C@H](C)CO)C(=O)Cc2cc(NC(=O)Cn3cnnn3)ccc2O[C@@H]1CN(C)Cc1ccccc1
  -0.24, -24, 1.2, -7
12: C[C@H]1CN([C@@H](C)CO)C(=O)c2cc(NC(=O)Nc3ccccc3)ccc2O[C@@H]1CN(C)Cc1ccccc1
  0.27, ·, 0.7, 4
13: Cc1noc(C)c1NC(=O)N(C)C[C@H]1Oc2c(NC(=O)c3ccncc3)cccc2C(=O)N([C@@H](C)CO)C[C@H]1C
  -0.02, -63, ·, -4
14: C(=Nc1ccc2ccccc2c1)Nc1ccc2ccccc2c1
  0.044, 12, 5.0, -15
15: CS(=O)(=O)N(CC(=O)Nc1ccc(Cl)cc1)c1cccc([N+](=O)[O-])c1
  ·, ·, -0.1, -13
16: Cc1cc(C)c(OCC(=O)Nc2ccc(C)cc2[N+](=O)[O-])c(Cl)c1
  ·, ·, 0.7, -9
17: C[C@@H]1CN([C@@H](C)CO)C(=O)c2cc(NC(=O)Nc3ccc(F)cc3)ccc2O[C@H]1CN(C)C(=O)Nc1ccc(F)cc1
  0.041, -1, -1.1, -10
18: COc1ccc(Cn2c(-c3ccc(OC)c(O)c3)nc3ccccc32)cc1O
  ·, ·, 0.4, -25
19: N#CC(=S)Nc1ccc(F)cc1
  0.33, 35, -0.5, 42
20: C[C@H](CO)N1C[C@H](C)[C@H](CN(C)S(C)(=O)=O)Oc2ccc(NC(=O)CCN3CCOCC3)cc2C1=O
  0.46, -25, -0.2, 6
21: COc1cccc(NC(=O)CSc2nc(C)c(C)c(C)c2C#N)c1
  ·, ·, 3.1, -16
22: Cc1noc(C)c1NC(=O)Nc1ccc2c(c1)C(=O)N([C@@H](C)CO)C[C@@H](C)[C@@H](CN(C)C(=O)Nc1ccccc1)O2
  0.68, 11, 0.7, -14
23: CCOc1ccc2ccccc2c1C(=O)NCc1cccnc1
  ·, ·, 2.3, 4
24: COc1c2occc2c(OC)c2c(=O)cc(C)oc12
  0.36, -43, 5.2, 9
25: Cc1ccc(N(CC(=O)Nc2ccccc2Sc2ccccc2)S(C)(=O)=O)c(C)c1
  ·, ·, 2.3, -5
26: C[C@H]1CN([C@@H](C)CO)C(=O)c2cccc(NC(=O)Nc3ccc4c(c3)OCO4)c2O[C@@H]1CN(C)C
  -0.029, -54, ·, -56
27: NC(=O)C1(N2CCCCC2)CCN(C(=O)CSc2nc3ccccc3s2)CC1
  ·, ·, -0.2, 1
28: C[C@H]1CN([C@@H](C)CO)C(=O)c2cccc(NS(=O)(=O)c3cn(C)cn3)c2O[C@@H]1CN(C)Cc1ccc(Cl)c(Cl)c1
  0.039, -16, ·, -23
29: C[C@@H]1CN([C@H](C)CO)C(=O)Cc2cc(NC(=O)Cc3cn(C)c4ccccc34)ccc2O[C@@H]1CN(C)S(=O)(=O)c1cn(C)cn1
  0.0076, 34, 2.0, 0
30: CCOC(=O)c1c(NC(=O)C(C)n2nc([N+](=O)[O-])c(Br)c2C)sc(C)c1C (centres undefined)
  ·, ·, -3.0, 5

Screen by screen, as entered above.
MITF inhib, entries 7–15, in order: 10, -4, 8, 8, -7, 4, -4, -15, -13
PD-1 reverse act, entries 7–15, in order: 0.6, 3.2, ·, -0.6, 1.2, 0.7, ·, 5.0, -0.1

Gathered by group, those above containing an aryl methoxy group
Below each SMILES: YB-1 expr inh, Shh pathway inh, PD-1 reverse act, MITF inhib
2: COc1ccc(CN(C)C[C@H]2Oc3ccc(NS(C)(=O)=O)cc3CC(=O)N([C@H](C)CO)C[C@H]2C)cc1
  0.023, -6, ·, 3
18: COc1ccc(Cn2c(-c3ccc(OC)c(O)c3)nc3ccccc32)cc1O
  ·, ·, 0.4, -25
21: COc1cccc(NC(=O)CSc2nc(C)c(C)c(C)c2C#N)c1
  ·, ·, 3.1, -16
24: COc1c2occc2c(OC)c2c(=O)cc(C)oc12
  0.36, -43, 5.2, 9

(continued)
Below each SMILES: YB-1 expr inh, Shh pathway inh, PD-1 reverse act, MITF inhib
31: COc1ccc(NC(=O)Nc2cccc3c2O[C@H](CN(C)S(=O)(=O)c2ccccc2)[C@@H](C)CN([C@H](C)CO)C3=O)cc1
  -0.095, 6, 1.5, -24
32: CC(=O)Nc1ccc(S(=O)(=O)NCc2ccc3[nH]c4c(c3c2)CCCC4)cc1
  ·, ·, 1.3, -9
33: C[C@@H]1CN([C@@H](C)CO)C(=O)Cc2cc(N(C)C)ccc2O[C@@H]1CN(C)Cc1ccc(C(=O)O)cc1
  0.094, 42, 1.4, 9
34: C[C@@H]1CN([C@H](C)CO)C(=O)Cc2cc(NS(C)(=O)=O)ccc2O[C@@H]1CN(C)Cc1ccccc1
  -0.1, -29, 0.8, -1
35: C[C@@H]1CN([C@H](C)CO)C(=O)c2cc(NS(=O)(=O)c3ccc(F)cc3)ccc2O[C@H]1CN(C)S(=O)(=O)c1cn(C)cn1
  0.34, ·, 2.3, -6
36: CNC[C@@H]1Oc2ccc(NC(=O)c3ccncc3)cc2CC(=O)N([C@@H](C)CO)C[C@@H]1C
  0.065, -23, 1.4, -8
37: C[C@H](CO)N1C[C@H](C)[C@H](CN(C)Cc2ccc(C(=O)O)cc2)Oc2c(NC(=O)c3ccncc3)cccc2C1=O
  -0.019, -14, 0.5, 2
38: C=C(C)[C@H]1C[C@]2(C)[C@@H](C)C[C@H](O)C[C@H]2[C@H](OC(=O)C=C(C)C)[C@@H]1O
  0.26, -5, ·, ·
39: Cc1ccc(S(=O)(=O)N(C)C[C@@H]2Oc3c(NC(=O)Nc4ccc5c(c4)OCO5)cccc3C(=O)N([C@@H](C)CO)C[C@H]2C)cc1
  -0.28, -44, ·, -5
40: C[C@@H]1CCCCO[C@H](CN(C)Cc2ccccc2)[C@@H](C)CN([C@H](C)CO)C(=O)c2cc(NC(=O)c3ccccc3)ccc2O1
  0.065, -6, ·, 7
41: Cc1onc(-c2c(Cl)cccc2Cl)c1C(=O)N(C)C
  -0.025, -6, -1.9, 3
42: Cn1c(SCc2ccon2)nc2ccccc2c1=O
  ·, ·, -1.4, -5
43: COc1ccc(C(=O)Nc2ccc(C(O)(C(F)(F)F)C(F)(F)F)cc2)cc1
  -0.43, ?, 0.5, 7
44: Cc1ccc(S(=O)(=O)N(C)C[C@H]2Oc3ccc(NC(=O)Nc4ccccc4)cc3C(=O)N([C@@H](C)CO)C[C@@H]2C)cc1
  0.058, -21, 1.4, 0
45: C[C@@H]1CN([C@H](C)CO)C(=O)c2cccc(NC(=O)C3CCCCC3)c2O[C@@H]1CN(C)S(=O)(=O)c1ccccc1
  0.035, -1, -2.1, -2
46: Cc1noc(C)c1S(=O)(=O)Nc1ccc2c(c1)CC(=O)N([C@@H](C)CO)C[C@H](C)[C@@H](CN(C)Cc1ccc(Cl)c(Cl)c1)O2
  0.63, ?, -0.7, -8
47: C[C@@H]1CN([C@H](C)CO)C(=O)Cc2cc(NS(=O)(=O)c3cccs3)ccc2O[C@@H]1CN(C)Cc1ccc(-c2ccccc2)cc1
  0.34, -30, -2.0, -8
48: CC(C)NC(=O)Nc1ccc2c(c1)C(=O)N([C@H](C)CO)C[C@@H](C)[C@@H](CN(C)S(C)(=O)=O)O2
  0.011, -41, 0.0, -3
49: C=C1[C@@H](C2=CC(=O)OC2)CC[C@@]2(O)[C@@H]1CC1[C@H]2CC[C@@H]2C[C@@H](O[C@H]3O[C@@H](C)[C@@H](O[C@@H]4O[C@H](CO[C@@H]5O[C@H](CO)[C@@H](O)[C@H](O)[C@H]5O)[C@@H](O)[C@H](O)[C@H]4O)[C@H](OC)[C@H]3O)CC[C@]12C (some centres undefined)
  -0.13, 27, ·, ·
50: O=C(Cc1ccccc1)c1ccc(Br)cc1
  -0.11, -25, 0.8, -49
51: O=C(CSc1nnnn1-c1ccccc1)Nc1ccc(F)c(Cl)c1
  ·, ·, 1.5, 1
52: CC(C)NC(=O)N(C)C[C@H]1Oc2c(NS(=O)(=O)c3ccccc3)cccc2C(=O)N([C@@H](C)CO)C[C@@H]1C
  0.43, -1, ·, -12
53: Cc1ccc(S(=O)(=O)N(C)C[C@H]2Oc3ccc(NS(=O)(=O)c4ccccc4)cc3C(=O)N([C@H](C)CO)C[C@H]2C)cc1
  -0.26, 13, -0.5, 4
54: C[C@@H]1CN([C@H](C)CO)C(=O)c2cccc(NS(=O)(=O)c3ccccc3)c2O[C@@H]1CN(C)Cc1ccc(Cl)c(Cl)c1
  0.17, -13, -2.2, -19
55: NC(N)=NN=Cc1c(Cl)cccc1Cl
  -0.13, 65*, ·, 0
56: C[C@H]1CN([C@@H](C)CO)C(=O)c2cc(NC(=O)Nc3ccccc3)ccc2O[C@@H]1CN(C)C(=O)NC1CCCCC1
  -0.08, ·, 3.9, -12
57: CC(C)NC(=O)N(C)C[C@H]1Oc2ccc(NS(=O)(=O)c3ccc(Cl)cc3)cc2CC(=O)N([C@@H](C)CO)C[C@H]1C
  0.23, 31, 1.5, -4
58: COc1ccc(NC(=O)Nc2ccc3c(c2)CC(=O)N([C@@H](C)CO)C[C@H](C)[C@H](CN(C)Cc2ccc(C(F)(F)F)cc2)O3)cc1
  0.17, -21, ·, 6
59: COc1ccc(Cl)cc1NC(=O)C(=O)NCc1cccnc1
  ·, ·, -0.9, 5
60: Cc1noc(C)c1NC(=O)N(C)C[C@H]1Oc2ccc(NS(=O)(=O)c3ccc(Cl)cc3)cc2C(=O)N([C@H](C)CO)C[C@H]1C
  0.077, -6, 0.5, -11
61: CCc1nc(C)ccc1OCC(=O)N(CC)CC
  1.2, ·, -0.1, -12
62: Cc1ccccc1OCC(=O)Nc1cccc(NC(=O)C(C)C)c1
  ·, ·, 1.1, -25
63: O=C(Nc1ccccc1C(=O)NCc1ccco1)c1ccccc1Cl
  ·, ·, -0.6, -9
64: CCCOc1ccc(C2C(C(=O)Nc3ccccc3OC)=C(C)Nc3ncnn32)cc1OC (centres undefined)
  ·, ·, -5.0, -14
65: Cc1ccc(S(=O)(=O)Nc2cccc3c2O[C@@H](CN(C)C(=O)NC2CCCCC2)[C@@H](C)CN([C@H](C)CO)C3=O)cc1
  1.5, ?, 0.5, 12
66: CCOc1ccc(NC(=O)CSc2nnc(N)s2)cc1
  ·, ·, -0.3, -8
67: CC(C)c1ccc2oc(-c3ccc(NC(=O)COc4ccc([N+](=O)[O-])cc4)cc3)nc2c1
  ·, ·, 0.6, -37
68: CC(C)NC(=O)Nc1ccc2c(c1)CC(=O)N([C@@H](C)CO)C[C@H](C)[C@H](CN(C)C(=O)Nc1cccc3ccccc13)O2
  -0.25, -6, -1.1, -5
69: C/C=C(/C)C(=O)O[C@H]1CC(C)(C)C[C@H]2C3=CCC4[C@@]5(C)CC[C@H](O[C@@H]6O[C@H](C(=O)O)[C@@H](O[C@@H]7O[C@H](CO)[C@H](O)[C@H](O)[C@H]7O[C@@H]7O[C@H](CO)[C@@H](O)[C@H](O)[C@H]7O)[C@H](O)[C@H]6O[C@@H]6O[C@@H](C)[C@H](O)[C@@H](O)[C@H]6O)C(C)(C)C5CC[C@@]4(C)[C@]3(C)C[C@@H](O)[C@@]12CO (some centres undefined)
  -1.1, 99*, -15, 92*
70: C[C@@H]1CN([C@@H](C)CO)C(=O)Cc2cc(NC(=O)CCC(F)(F)F)ccc2O[C@@H]1CN(C)S(C)(=O)=O
  0.014, -17, 0.0, -5
71: CCOC(=O)c1sc(NC(=O)c2cc(-c3ccccc3)on2)c(C(=O)OCC)c1C
  ·, ·, 2.5, -6
72: O=C1C(=O)N(CCCn2ccnc2)C(c2cccc(Br)c2)C1C(=O)c1ccco1 (centres undefined)
  ·, ·, 2.5, -1
73: O=C(O)C1CC=CCC1C(=O)Nc1ccc(C(=O)N2CCCCC2)c(Cl)c1 (centres undefined)
  ·, ·, 2.2, -21
74: CCn1c(SCC(=O)Nc2ccc(F)c(Cl)c2)nnc1-c1ccc(C(C)(C)C)cc1
  ·, ·, -0.5, 28
